Cruzain noTriton = qHTS Assay for Promiscuous and Specific Inhibitors of Cruzain (without detergent); Potency, µM, inactives show max response, negative = inhibition, hits mostly inhibitors; AID 1476, 2009; Cruzipain (Trypanosoma cruzi), P25779; purified cruzain, Z-FR-AMC fluorescence, no detergent; 200,000 compounds, 2.3% hits;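 further: plate controls were enzyme without inhibitor for no effect and buffer without enzyme for full effect; nearly all actives have a fitted effect of over 40% in size; top concentration of the series not given in the record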
Target sequence (P25779 123-467 limits assumed): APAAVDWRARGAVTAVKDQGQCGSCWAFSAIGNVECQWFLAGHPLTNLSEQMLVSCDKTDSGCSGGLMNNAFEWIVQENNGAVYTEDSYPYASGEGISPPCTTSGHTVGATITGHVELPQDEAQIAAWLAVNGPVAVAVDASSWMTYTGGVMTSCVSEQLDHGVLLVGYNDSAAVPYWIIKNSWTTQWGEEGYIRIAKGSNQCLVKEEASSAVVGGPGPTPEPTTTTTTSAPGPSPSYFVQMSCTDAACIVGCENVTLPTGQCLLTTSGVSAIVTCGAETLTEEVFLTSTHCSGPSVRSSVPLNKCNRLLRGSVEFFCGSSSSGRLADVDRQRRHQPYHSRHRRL
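Purified cruzain at 1.5 nM, pre-incubated 15 min with compound at room temperature in 100 mM sodium acetate pH 5.5, 5 mM DTT, 0.00005% Triton X-100. Reaction started with 2 uM Z-FR-AMC; AMC fluorescence increase over 60 s gives rate.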
SARS PLpro yeast = qHTS of Yeast-based Assay for SARS-CoV PLP; S. cerevisiae expressing SARS-CoV PLpro, growth rescue; control for the full effect not named in the record; Potency, µM (top dose mostly 32.9 µM), without a hit: top-dose activity, positive = growth rescue; 330,000 compounds, 0.19% hits; AID 485353, 2010; active means well fitted rising curve with a large enough effect; inconclusive means small, poorly fitted or top-dose-only effect; inactive means no such curve, though single readings can be large or run the other way; further: 0% is about no effect; nearly all actives have a fitted effect of over 55% in size; growth read by luminescence after 48 h
Lassa entry inh = qHTS for Inhibitors of binding or entry into cells for Lassa Virus; Lassa virus pseudotype entry inhibition, cell reporter; control for the full effect not named in the record; Potency, µM (series often up to 37.9 µM), for the others: at the highest dose activity change, negative = inhibition, usual class: inhibitors; 300,000 compounds, 1.2% hits; AID 540256, 2011; active means well fitted inhibition curve with a large enough effect; inconclusive means small, poorly fitted or top-dose-only effect, or effect the other way; inactive means flat fitted curve, though single readings scatter; tested in HEK293 cells; further: on the % scale 0 is the no-effect control and ±100 the full control effect; nearly all actives have a fitted effect of over 50% in size; luciferase read-out
NS1 inh = qHTS Assay for Inhibitors of Influenza NS1 Protein Function | S. cerevisiae slowed by influenza A NS1, growth recovery by OD600 | Potency, µM (series often up to 46.1 µM), without a hit: at the highest dose activity, positive = more growth | 270,000 compounds, 0.4% hits | AID 2326, 2010; active means well fitted rising curve with a large enough effect; inconclusive means small, poorly fitted or top-dose-only effect; inactive means no such curve, though single readings can be large or run the other way; further: nearly all actives have a fitted effect of over 50% in size
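A cell-based growth assay was used: compounds that relieve NS1-induced slow growth of budding yeast raise OD600. Assay medium was yeast nitrogen base with ammonium sulphate and -URA supplement, pH 6.0, with 2% galactose.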
MARV entry inh = qHTS for inhibitors of binding or entry into cells for Marburg Virus. 300,000 compounds, 1.8% hits. Marburg virus pseudotyped entry inhibition, cell reporter; control for the full effect not named in the record; about a third of the inactives were read at about 46 µM. Potency, µM (top dose mostly 37.8 µM), for inactives: at the top dose activity change, negative = inhibition, most hits filed as inhibitors. AID 540276, 2011; active = well fitted inhibition curve with a large enough effect; inconclusive = small, poorly fitted or top-dose-only effect, or effect the other way; inactive = flat fitted curve, though single readings scatter; tested in HEK293 cells; about a fifth of its hits are not listed in these tables; further: on the % scale 0 is the no-effect control and ±100 the full control effect; luciferase read-out
RE007 growth inh = qHTS Assay for Inhibitors of the HIV-1 protein Vpr | 360,000 compounds, 0.21% hits | S. pombe RE007 Vpr strain, BacTiter-Glo ATP luminescence, 24 h; control for the full effect not named in the record | Potency, µM (doses to about 92.2 µM), inactives show at the highest dose activity change, negative = less growth; active = well fitted falling curve with a large enough effect; inconclusive = small, poorly fitted or top-dose-only effect; inactive = no such curve, though single readings can be large or run the other way;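 further: on the % scale 0 is the no-effect control and ±100 the full control effect; nearly all actives have a fitted effect of over 50% in size; the assay follows cell death caused by Vpr and the record does not say whether a fall means rescue or toxicity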
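Fission yeast RE007 carrying one integrated HIV-1 vpr copy, seeded at OD 0.01 in PMG+AL medium with 23 nL pinned compound. Grown 24 h at 30 degrees; viability read by BacTiter-Glo luminescence after 5 min.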
2A StopGo = High Throughput Screening for Foot and Mouth Disease Virus Antivirals | human cells with a luciferase reporter of 2A StopGo recoding; control for the full effect not named in the record | Potency, µM (doses to about 57.9 µM), without a hit: at the highest dose signal change, negative = less light | 410,000 compounds, 1.2% hits | AID 1159524, 2015; active = well fitted falling curve with a large enough effect; inconclusive = small, poorly fitted or top-dose-only effect; inactive = no such curve, though single readings can be large or run the other way; tested in HEK293T cells; further: on the % scale 0 is the no-effect control and ±100 the full control effect; nearly all actives have a fitted effect of over 45% in size; luciferase light after 4 h
Cruzain Triton = qHTS Assay for Promiscuous and Specific Inhibitors of Cruzain (with detergent); purified cruzain, Z-FR-AMC fluorescence, 0.01% Triton; Potency, µM, inactives show max response, negative = inhibition, actives largely listed as inhibitors; 200,000 compounds, 0.43% hits; AID 1478, 2009;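 further: plate controls were neutral wells for no effect and buffer without enzyme for full effect; nearly all actives have a fitted effect of over 40% in size; top concentration of the series not given in the record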
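Cruzain (1.5 nM) preincubated 15 min at RT with compound in 100 mM sodium acetate pH 5.5, 5 mM DTT, 0.01% Triton X-100. Reaction started with 2 uM Z-FR-AMC; AMC fluorescence (ex 360/em 450 nm) change over 60 s gave rate.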
* hit, by the source's call; & = joins results of further samples; [ ] = dose if it differs, or a comment. Unless noted, the call rests on the fitted dose curve; in most records, active means well fitted curve in the direction sought with a large enough effect; inconclusive means small, poorly fitted or top-dose-only effect, or another doubt; inactive means no such curve, though single readings can be large; an effect the other way counts as inactive or inconclusive. Potency means the concentration at half of the fitted maximal effect.

FC(F)(F)c1cccc(N2CCN(Cc3nnc(-c4ccc5c(c4)OCO5)o3)CC2)c1 was read as Cruzain noTriton inconclusive, Lassa entry inh -3%[46.1 µM], MARV entry inh -8%[46.1 µM], 2A StopGo -20% and Cruzain Triton -13%.
Screening O=C(COC(=O)C1CCN(S(=O)(=O)c2cccs2)CC1)Nc1ccccc1 returned SARS PLpro yeast 0%, Lassa entry inh 5%, MARV entry inh -2%[46.1 µM], RE007 growth inh 7% and 2A StopGo 25%.
`C=CCN1C2CCCC1CC(NC(=O)Nc1cccc(C(C)=O)c1)C2` (stereo not given) gave Cruzain noTriton 0%, SARS PLpro yeast -3%, Lassa entry inh -1%, NS1 inh 3%, MARV entry inh inconclusive, RE007 growth inh 20%, 2A StopGo -8% and Cruzain Triton -1.6%.
Screening O=C(/C=C/c1cccc(Cl)c1)NCc1ccncc1 returned Cruzain noTriton -2%, SARS PLpro yeast -17%, Lassa entry inh -2%, NS1 inh 4%, RE007 growth inh -13%, 2A StopGo -2% and Cruzain Triton -2.0%.
`O=C1CSc2ccc(S(=O)(=O)NCc3ccc(F)cc3)cc2N1` gave SARS PLpro yeast 2%, NS1 inh 18%, RE007 growth inh -6% and 2A StopGo 83%[activator].
For COc1ccc(C(CNC(=O)c2cccc(N(C)C)c2)N2CCCC2)cc1 (stereo not given) the results were Cruzain noTriton -17%, SARS PLpro yeast 3%, Lassa entry inh -11%, NS1 inh 8%, MARV entry inh inconclusive, RE007 growth inh 17%, 2A StopGo 8% and Cruzain Triton -1.9%.
CCOC(=O)c1c(C)nc2c3ccccc3ccn12 was read as Cruzain noTriton 9%, SARS PLpro yeast -16%, Lassa entry inh -1%, NS1 inh -46%, MARV entry inh inconclusive, RE007 growth inh -16%, 2A StopGo -18% and Cruzain Triton -0.7%.
COc1cc(CCC(=O)OCC(=O)Nc2ccc3c(c2)OCO3)cc(OC)c1OC was read as SARS PLpro yeast -11%, Lassa entry inh -8%[46.1 µM], NS1 inh 12%, MARV entry inh 8%[46.1 µM], RE007 growth inh -20% and 2A StopGo -15%.
O=S(=O)(c1ccccc1)c1nc(-c2ccccc2)oc1N1CCCC1 was read as SARS PLpro yeast 0%, Lassa entry inh inconclusive, NS1 inh 9%, MARV entry inh -2%[46.1 µM], RE007 growth inh -6% and 2A StopGo 22%.
Screening CC1CCN(C(=O)CSc2nc3ccccc3c(=O)[nH]2)CC1 returned SARS PLpro yeast 0%, NS1 inh -1%, MARV entry inh 3%[46.1 µM], RE007 growth inh 0% and 2A StopGo 42%[activator].
For O=C(Nc1nnc(-c2ccccc2)o1)c1nc2ccccc2s1 the results were SARS PLpro yeast 1%, NS1 inh 2%, RE007 growth inh -1% and 2A StopGo -2%.
`CN(CC(=O)Nc1ccc(F)c(F)c1F)C(=O)Cn1cnc2c1c(=O)n(C)c(=O)n2C` gave SARS PLpro yeast -4%, Lassa entry inh 13%, MARV entry inh 4%, RE007 growth inh 0% and 2A StopGo -9%.
For O=C(NCc1ccc2c(c1)OCO2)c1ccc(Br)o1 the results were SARS PLpro yeast 0%, Lassa entry inh -22%[46.1 µM], NS1 inh -1%, MARV entry inh 2%[46.1 µM], RE007 growth inh 0% and 2A StopGo 24%.
`CCOc1ccc(-c2c(C)nn3c(C)c(C(=O)NCCc4ccccc4)cnc23)cc1OCC` gave Cruzain noTriton -8%, Lassa entry inh -2%[46.1 µM], 2A StopGo -8% and Cruzain Triton -3.1%.
For Cc1ccc2nc(COc3cccc(NC(=O)COc4ccccc4F)c3)cc(=O)n2c1 the results were Cruzain noTriton -3%, Lassa entry inh 8%[46.1 µM], 2A StopGo 19% and Cruzain Triton 3.0%.
Screening CCN(CC)C(=O)CSc1ncccc1-c1nc2ccccc2[nH]1 returned SARS PLpro yeast 1%, Lassa entry inh 25%[46.1 µM], NS1 inh 2%, MARV entry inh 20%[46.1 µM], RE007 growth inh 8% and 2A StopGo -3%.
Screening Cc1ccc(N2CC(NC(=O)N3CCN(C(=O)c4ccco4)CC3)CC2=O)cc1 (stereo not given) returned SARS PLpro yeast -2%, Lassa entry inh -1%, MARV entry inh 2%, RE007 growth inh -12% and 2A StopGo -15%.
NC(=O)C1CCN(CC(=O)Nc2ccccn2)CC1 was read as Cruzain noTriton -7%, SARS PLpro yeast 4%, Lassa entry inh 6%, NS1 inh -2%, MARV entry inh 12%, RE007 growth inh -1%, 2A StopGo 19% and Cruzain Triton -0.9%.
Nc1c(Cl)cc2c(c1Oc1ccccc1)C(=O)c1ccccc1C2=O was read as Cruzain noTriton -12%, SARS PLpro yeast -4%, Lassa entry inh -12%, NS1 inh -65%, MARV entry inh 24%, RE007 growth inh -18% and Cruzain Triton -4.3%.
`O=C1C2C3CCCC3=C3CCCC3C2C(=O)N1c1ccc(F)cc1` (stereo not given) gave Cruzain noTriton -1%, SARS PLpro yeast 2%, Lassa entry inh inconclusive, NS1 inh 6%, MARV entry inh 11%[46.1 µM], RE007 growth inh 14%, 2A StopGo inconclusive and Cruzain Triton -1.6%.
`O=c1[nH]c(CN2CCN(S(=O)(=O)c3ccc4ccccc4c3)CC2)nc2ccccc12` gave SARS PLpro yeast 0%, Lassa entry inh 3%, MARV entry inh 5%[46.1 µM], RE007 growth inh -2% and 2A StopGo -2%.
CN1COc2ccc3ccccc3c2C1 was read as SARS PLpro yeast -3%, Lassa entry inh -6%[46.1 µM], MARV entry inh 11%[46.1 µM], RE007 growth inh -6% and 2A StopGo -11%.
Screening CCN(C(=O)CSc1ncccc1C(=O)OC(C)C)c1cccc(C)c1 returned Cruzain noTriton 4%, SARS PLpro yeast -36%, Lassa entry inh inconclusive, NS1 inh -58%, MARV entry inh 1%, RE007 growth inh 15%, 2A StopGo -12% and Cruzain Triton -11%.
CC(=O)N1CCCc2cc(S(=O)(=O)N3CCCC(C(=O)N4CCN(c5cc(C)ccc5C)CC4)C3)ccc21 (stereo not given) was read as Cruzain noTriton inconclusive, SARS PLpro yeast -30%, Lassa entry inh 5.6µM*, NS1 inh inconclusive, MARV entry inh inconclusive, RE007 growth inh -7%, 2A StopGo 28µM* and Cruzain Triton -3.4%.
`CCOc1cc(CNC(=O)C(NS(=O)(=O)c2cccs2)C(C)C)cc(OCC)c1OCC` (stereo not given) gave Cruzain noTriton 8%, Lassa entry inh 3%[46.1 µM], 2A StopGo 1% and Cruzain Triton 0.1%.
Screening Cc1cc(C(=O)Nc2ccccc2C)on1 returned SARS PLpro yeast 1%, Lassa entry inh 20%[46.1 µM], NS1 inh 10%, MARV entry inh 15%[46.1 µM], RE007 growth inh 9% and 2A StopGo -1%.
`CCOC(=O)c1cc(-c2ccccc2)n(CC(=O)Nc2cc(OC)cc(OC)c2)c1C` gave Cruzain noTriton 10%, SARS PLpro yeast 3%, Lassa entry inh -18%, NS1 inh 12%, MARV entry inh -28%, RE007 growth inh 4%, 2A StopGo -20% and Cruzain Triton -5.3%.
`CN(C)CCCN(C(=O)CCc1ccccc1)c1nc2ccc(Cl)cc2s1` gave Cruzain noTriton 4%, SARS PLpro yeast -50%, Lassa entry inh inconclusive, NS1 inh 9%, MARV entry inh inconclusive, RE007 growth inh -4%, 2A StopGo -16% and Cruzain Triton -17%.
For c1ccc(Nc2nc(-c3ccccc3)nc3ccccc23)cc1 the results were SARS PLpro yeast -6%, NS1 inh -105%, RE007 growth inh -26% and 2A StopGo -20%.
`CC(NC(=O)c1ccco1)c1cccc2ccccc12` (stereo not given) gave Cruzain noTriton 5%, SARS PLpro yeast -5%, Lassa entry inh 3%, NS1 inh -11%, MARV entry inh 3%, RE007 growth inh 24%, 2A StopGo 1% and Cruzain Triton -1.0%.
`Cc1ccc(C)c(N2CCN(Cc3csc(C)c3)CC2)c1` gave Cruzain noTriton -4%, Lassa entry inh -4%[46.1 µM], 2A StopGo -21% and Cruzain Triton 3.1%.
Screening Cc1noc(C)c1S(=O)(=O)Nc1ccc(C(C)C)cc1 returned SARS PLpro yeast -8%, NS1 inh -30%, RE007 growth inh -19% and 2A StopGo 7%.
Screening Cc1ccsc1C(=O)NNC(=O)C1CC=CCC1C(=O)O (stereo not given) returned Cruzain noTriton -2%, SARS PLpro yeast inconclusive, Lassa entry inh 0%, NS1 inh 21%, MARV entry inh inconclusive, RE007 growth inh -9%, 2A StopGo 0% and Cruzain Triton -0.6%.
Screening Cc1c(C(=O)N2CCCC2)oc2ccc(Br)cc12 returned SARS PLpro yeast -6%, NS1 inh -68%, RE007 growth inh -21% and 2A StopGo 41%[activator].
CCC(C)N(C(=O)CSc1ncnc2c1cnn2-c1ccccc1)C1CCS(=O)(=O)C1 (stereo not given) was read as SARS PLpro yeast -2%, Lassa entry inh -9%, MARV entry inh -18%, RE007 growth inh -4% and 2A StopGo inconclusive.
`CC(C)Cc1nc(N2CCCCC2)c(C#N)c2c1CCC2` gave Cruzain noTriton 10%, SARS PLpro yeast -2%, Lassa entry inh 6%, NS1 inh -6%, MARV entry inh -16%&-16%, RE007 growth inh 8%, 2A StopGo -18% and Cruzain Triton -1.3%.
Cc1ccc(S(=O)(=O)CCC(=O)OCC(=O)N(C)C2CCS(=O)(=O)C2)cc1 (stereo not given) was read as SARS PLpro yeast 0%, Lassa entry inh inconclusive, MARV entry inh 4%[46.1 µM], RE007 growth inh -7% and 2A StopGo -16%.
Screening CC(=O)Nc1ccc(S(=O)(=O)Nc2cc([N+](=O)[O-])ccc2C)cc1 returned SARS PLpro yeast 0%, Lassa entry inh inconclusive, MARV entry inh -5%[46.1 µM], RE007 growth inh 4% and 2A StopGo -2%.
CCOC(=O)C1=C(C)NC(C)=C(C(=O)OCC)C1C(=O)OCC(N)=O was read as SARS PLpro yeast -2%, Lassa entry inh 4%, MARV entry inh 5%, RE007 growth inh 1% and 2A StopGo 2%.
